Compound activity deposited in PubChem by National Center for Advancing Translational Sciences (NCATS).
N370S GC: inhibitors or activators of N370S glucocerebrosidase for Gaucher disease. P04062. N370S GC spleen homogenate, 4MU-glucoside fluorescence. Potency, µM (titrated, usually from 59.4 µM), for inactives: at the highest dose activity change, negative = inhibition, actives largely listed as inhibitors. 330,000 compounds, 0.092% hits. AID 2101;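 note: 0% = full enzyme activity and -100% = no enzyme basal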
GCN5L2 inh: GCN5L2 (KAT2A) acetyltransferase inhibition. Q92830. GCN5L2 HAT assay, ThioGlo1 CoA-SH fluorescence. Potency, µM (top dose mostly 58.9 µM), for inactives: at the highest dose activity change, negative = inhibition, hits mostly inhibitors. 390,000 compounds, 0.21% hits. AID 504327
Target sequence (Q92830 whole entry, looked up): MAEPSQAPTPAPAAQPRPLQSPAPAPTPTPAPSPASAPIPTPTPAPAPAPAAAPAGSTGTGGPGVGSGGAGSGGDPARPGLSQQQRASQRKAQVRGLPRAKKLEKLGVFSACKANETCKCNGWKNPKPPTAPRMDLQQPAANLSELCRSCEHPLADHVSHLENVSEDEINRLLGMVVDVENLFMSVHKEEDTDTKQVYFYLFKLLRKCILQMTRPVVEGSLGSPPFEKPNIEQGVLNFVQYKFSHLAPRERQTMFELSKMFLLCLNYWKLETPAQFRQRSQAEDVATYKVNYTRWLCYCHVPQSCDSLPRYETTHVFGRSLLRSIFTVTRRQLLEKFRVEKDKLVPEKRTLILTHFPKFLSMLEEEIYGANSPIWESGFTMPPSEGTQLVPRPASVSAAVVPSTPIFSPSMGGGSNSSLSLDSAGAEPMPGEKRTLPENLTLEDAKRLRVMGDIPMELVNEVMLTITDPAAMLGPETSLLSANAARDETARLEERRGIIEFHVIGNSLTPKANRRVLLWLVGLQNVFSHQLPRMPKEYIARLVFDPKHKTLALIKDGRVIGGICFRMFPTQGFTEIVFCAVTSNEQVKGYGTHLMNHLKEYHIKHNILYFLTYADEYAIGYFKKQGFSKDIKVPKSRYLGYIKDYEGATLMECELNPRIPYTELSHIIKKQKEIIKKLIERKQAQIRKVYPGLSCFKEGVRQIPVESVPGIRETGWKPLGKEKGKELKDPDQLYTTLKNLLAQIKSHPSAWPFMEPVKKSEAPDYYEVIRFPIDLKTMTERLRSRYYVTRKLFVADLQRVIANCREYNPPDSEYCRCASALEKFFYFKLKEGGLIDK
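Titration-based screen in which CoA formation is detected via maleimide probe ThioGlo1 (50uM) turning fluorescent on thiol reaction; substrates H3(1-25) 75uM and acetyl-CoA 70uM, GCN5L2 20nM, 20 min incubation at room temperature.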
* hit, by the source's call; ? = inconclusive; · = no result given; & = joins results of further samples; [ ] = another dose, or the depositor's remark. Calls come from the whole dose curve; as a rule, active = well fitted curve in the direction sought with a large enough effect; inconclusive = small, poorly fitted or top-dose-only effect, or another doubt; inactive = no such curve, though single readings can be large; an effect the other way counts as inactive or inconclusive. Unless noted, % is set by controls: 0 for no effect and ±100 for the full control effect; potency is the fitted concentration of half-maximal effect. The list is partial, and most or all hits are left out here.

smiles | N370S GC | GCN5L2 inh
CCOC(=O)Cc1csc(NC(=O)Nc2ccc(Cl)cc2)n1 | 3% | -3%
O=C(COc1nc2ccccc2nc1N1CCOCC1)NC1CCCCC1 | -2% | -3%
COc1ccc(NC(=O)NNC(=O)C(O)(c2ccccc2)c2ccccc2)cc1 | -1% | -9%
COc1ccc(NC(=O)CC2C(=O)N(C)C(=S)N2CCc2ccc(F)cc2)cc1 (stereo not drawn) | 1% | 2%
Cc1cc2cc3c(cc2nc1SCC(=O)OC(C)C)OCCO3 | ? | -11%
Cc1ccc(-c2nc3sc(CCNC(=O)c4ccc(F)c(F)c4)c(C)n3n2)cc1 | · | -11%
CCCCN(C(=O)C1CCC1)c1c(N)n(Cc2ccccc2)c(=O)[nH]c1=O | · | 3%
CC(OC(=O)CCC(=O)c1cccs1)C(=O)NC1CCCCC1C (stereo not drawn) | · | -1%

Whole records, looked up by structure. Screens in order: N370S GC | GCN5L2 inh
`COc1ccc(NC(=O)NNC(=O)C(O)(c2ccccc2)c2ccccc2)cc1` is listed with -1% | -9%
`COc1ccc(NC(=O)CC2C(=O)N(C)C(=S)N2CCc2ccc(F)cc2)cc1` (stereo not drawn) is listed with 1% | 2%
`O=C(COc1nc2ccccc2nc1N1CCOCC1)NC1CCCCC1` is listed with -2% | -3%
`CC(OC(=O)CCC(=O)c1cccs1)C(=O)NC1CCCCC1C` (stereo not drawn) is listed with · | -1%

Remaining list, next part:
smiles | N370S GC | GCN5L2 inh
CCOC(=O)CC1(C)NC(=O)c2c(C)sc(C(=O)OCC)c2N1 (stereo not drawn) | -18% | -11%
N#Cc1nc(-c2ccc(OCc3ccccc3)cc2)oc1NCc1ccco1 | 13% | -6%
Cc1ccc(C(=O)NC2CCCCNC2=O)cc1 (stereo not drawn) | -3% | 3%
CCC1(C(=O)O)NC(c2cccc(OC)c2O)C2C(=O)N(c3ccccc3)C(=O)C21 (stereo not drawn) | 1% | -4%
Cc1cccc(CCNS(=O)(=O)c2ccc3c(c2)NC(=O)CO3)c1 | 2% | -21%
CCOC(=O)c1c(S(=O)(=O)NCC(=O)NCc2ccccc2)c(C)n(C)c1C | 4% | -3%&-17%
COc1nc(N(c2ccccc2)c2ccccc2)nc(-n2ccnc2)n1 | -13% | -3%
Cc1cccc(NC(=O)CSc2nnnn2-c2ccc3c(c2)OCCO3)n1 | -22% | -7%
Cc1cc(C)nc(NS(=O)(=O)c2ccc(NC(=O)CCC3COc4ccccc4O3)cc2)n1 (stereo not drawn) | -4% | -3%
Cc1cc(C)nc(NC(=O)c2cc(Br)ccc2Cl)n1 | -19% | -2%
O=C(NCCN1CCOCC1)C1CC(=O)N(c2cccc(C(F)(F)F)c2)C1 (stereo not drawn) | -4% | 0%
O=C(COc1ccc(Cl)cc1Cl)N(Cc1ccco1)C1CCS(=O)(=O)C1 (stereo not drawn) | 12% | -4%
CC(C)(C)c1ccc(OCCn2nc(C(=O)O)c3ccccc3c2=O)cc1 | 22% | -11%
Cn1c(=O)oc2cc(S(=O)(=O)NCCN3CCN(c4ccccc4F)CC3)ccc21 | -2% | 0%
CCc1nn(CC(=O)NCCc2ccc(OC)c(OC)c2)c(=O)c2cc3occc3n12 | · | -3%
CCc1ccc(C)c(OC(=O)c2cncc(Br)c2)c1 | -11% | -5%
Cc1ccc(C(=O)N2CCN(c3ccc(NC(=O)Cc4ccccc4)cc3)CC2)cc1 | -7% | -29%
Cc1ccc(C)c2nc(SCC(=O)Nc3ccc4c(c3)OCO4)c(C#N)cc12 | -7% | -8%
CC(OC(=O)/C(C#N)=C/c1ccco1)C(=O)N(C)c1ccccc1 (stereo not drawn) | · | -12%
CCCCN(CC)C(=O)CN1C(=O)c2ccccc2C1=O | 12% | -1%
O=C(COc1ccc(Cl)cc1Cl)NCc1ccncc1 | 2%[2.35 µM] | -6%
NC(=O)c1csc(-c2ccncc2)n1 | -10% | -1%
CC(c1ccccc1)N1C(=O)c2ccc(C(=O)Nc3ccccc3C(=O)O)cc2C1=O (stereo not drawn) | -11% | ?
CCOc1cccc(-c2nnc3n2N=C(c2cc(OC)ccc2OC)CS3)c1 | 7% | -6%
CCCc1cc2c(=O)c(-c3cscn3)c(C(=O)OCC)oc2cc1O | -15% | 0%
Cc1cc(C)c(C)c(S(=O)(=O)N2CCSCC2)c1C | -12% | -3%
Cc1nc2c(c(=O)c3ccccc3n2C)c(=O)n1-c1ccc(F)cc1 | 10% | 0%
CCCC(=O)Nc1cccc2c1CCCC2 | 6% | 0%
COc1ccc(OC)c(C(=O)c2coc3ccc(O)c(CN(C)C)c23)c1 | 1% | -2%
NC(=O)c1nn(-c2ccccc2)nc1NC(=O)CN1CCOCC1 | -3% | -14%
CN1CCN(NC(=O)c2cccc(Br)c2)CC1 | -5% | -3%
COc1cccc(N2C(=O)CC(N3CCC(c4nc5ccccc5[nH]4)CC3)C2=O)c1 (stereo not drawn) | -19% | -1%
CC(=O)Nc1cccc(C(=O)OC(C)C(=O)N2CCc3ccccc32)c1 (stereo not drawn) | -4% | -3%
N/C(=N\OC(=O)c1cccc(F)c1)c1cccc([N+](=O)[O-])c1 | 2% | -4%
CC(C)(C)OC(=O)NC(Cc1ccccc1)C(=O)NCCCC(=O)O (stereo not drawn) | -7% | 16%
COC(=O)NC(NC(=S)Nc1ccc([N+](=O)[O-])cc1)C(Cl)(Cl)Cl (stereo not drawn) | -21% | -6%
CCc1ccc(-n2nc(C)c3c(C)cc(=O)n(CC(=O)Nc4ccc(F)cc4C)c32)cc1 | · | 3%
O=C(NC1CC(=O)N(c2ccccc2)C1)C1CC1 (stereo not drawn) | 0% | 0%
C=CCn1c(SCC(=O)c2ccccc2)nnc1-c1cc2ccccc2o1 | -7% | -9%
COCCCNCCCCOc1ccccc1-c1ccccc1 | -29% | 2%

Seven successive records from above:
smiles | N370S GC | GCN5L2 inh
N/C(=N\OC(=O)c1cccc(F)c1)c1cccc([N+](=O)[O-])c1 | 2% | -4%
CC(C)(C)OC(=O)NC(Cc1ccccc1)C(=O)NCCCC(=O)O (stereo not drawn) | -7% | 16%
COC(=O)NC(NC(=S)Nc1ccc([N+](=O)[O-])cc1)C(Cl)(Cl)Cl (stereo not drawn) | -21% | -6%
CCc1ccc(-n2nc(C)c3c(C)cc(=O)n(CC(=O)Nc4ccc(F)cc4C)c32)cc1 | · | 3%
O=C(NC1CC(=O)N(c2ccccc2)C1)C1CC1 (stereo not drawn) | 0% | 0%
C=CCn1c(SCC(=O)c2ccccc2)nnc1-c1cc2ccccc2o1 | -7% | -9%
COCCCNCCCCOc1ccccc1-c1ccccc1 | -29% | 2%

Remaining list, next part:
Fields: N370S GC, GCN5L2 inh
- Fc1ccc(C(c2nnnn2C2CCCC2)N(Cc2ccco2)CC2CCCO2)cc1 (stereo not drawn)
→ 2%, -13%
- Cc1ccc(CNC(=O)C(=O)NCC2OCCN2C(=O)c2ccc3c(c2)OCO3)cc1 (stereo not drawn)
→ 3%, -9%
- COc1ccc(OC)c(CN2CCC(CNC(=O)Nc3cccc(Cl)c3)CC2)c1
→ -16%, -6%
- COc1ccc2cc(C3CC(c4cccs4)=NN3C(C)=O)c(Cl)nc2c1 (stereo not drawn)
→ -5%, -7%
- O=C(Nc1ccccc1C(=O)Nc1ccncc1)c1cccc([N+](=O)[O-])c1
→ -8%, -2%
- CCCCN(C(=O)CCCc1nc2ccccc2s1)c1c(N)n(CCCC)c(=O)[nH]c1=O
→ -3%, -1%
- COc1ccc(CNC(=O)C(c2cccs2)N(Cc2ccco2)C(=O)Cc2cccs2)cc1 (stereo not drawn)
→ 7%, -13%
- CCCCn1c(N)c(N(CCOC)C(=O)CSc2ccccc2C)c(=O)[nH]c1=O
→ 1%, -4%
- Cc1csc(NC(=O)c2oc3ccccc3c2C)n1
→ -2%, -4%
- CCC1(C)Cc2c(sc3nc(SC)nc(NCCN(C)C)c23)CO1 (stereo not drawn)
→ -5%, -16%
- COc1ccc(NC(=O)CSCC(=O)NCc2ccco2)cc1
→ -5%, -1%
- CC(OC(=O)C1CC(=O)N(Cc2ccco2)C1)C(=O)Nc1ccc(F)cc1Cl (stereo not drawn)
→ ·, 1%
- O=C(CNC(=O)c1ccc(Br)o1)Nc1cccc(S(=O)(=O)N2CCCC2)c1
→ -17%, -7%
- C/C(=N/NC(=O)c1cccs1)c1cccc(N)c1
→ -20%, -12%
- CC(C)N(Cc1nc(-c2ccccc2)no1)C(=O)C(Cl)(Cl)Cl
→ 23%, 17%
- Cc1ccc(NC(=S)c2nc3ccccc3[nH]2)cc1
→ 19%, -19%
- O=C(NCc1ccccc1)C12CN(Cc3ccccc3)CC1C(c1ccc([N+](=O)[O-])cc1)=NO2 (stereo not drawn)
→ 6%, -11%
- c1ccc(CCNCCCOc2cccc3ccccc23)cc1
→ -21%, -2%
- CN1CCN(S(=O)(=O)c2ccc3[nH]c(=O)oc3c2)CC1
→ 19%, -2%
- O=C(Nc1cccc(Cl)c1N1CCOCC1)c1ccco1
→ 10%, -4%
- CCC(=O)Nc1ccc(C(=O)OCc2ccccc2)cc1
→ -5%, -8%
- Cc1c(C#N)c(=O)oc2ccc3ccccc3c12
→ 3%, -17%
- CCOc1ccccc1NC(=O)CCc1nnc2ccc(N3CCC4(CC3)OCCO4)nn12
→ 1%, -3%
- CN(C[C@H](Cc1ccccc1)N(CCN(CCc1ccccc1)N=O)N=O)N=O
→ 3%, 2%
- COC(=O)CCCC1=CC2=CC(=O)C(C)(OC(=O)c3cccs3)C(=O)C2=CN1CCCCO (stereo not drawn)
→ -12%[12.8 µM], 31%[activator]
- COc1cc(CO)ccc1OCC(=O)N1CCc2ccccc21
→ -2%, 1%
- O=C(CNc1ccccc1-c1ccccc1)NCc1ccccc1
→ 19%, -3%
- Cc1ccc(C)c(NC(=O)Cn2cc(S(=O)(=O)c3ccc(F)cc3)c(=O)c3cc(F)ccc32)c1
→ ·, -7%
- COc1ccccc1NC(=O)c1ccc2c(Cl)c3c(nc2c1)CCCC3
→ ·, -17%
- CC(=O)N(Cc1c(C#N)c2ccccc2n1C)c1ccccc1
→ 4%, 4%
- N#CCC(=O)Nc1ncc(Cc2ccccc2Cl)s1
→ -5%, -6%
- Cn1c(N)c(C(=O)COC(=O)C2CC(=O)N(Cc3ccccc3)C2)c(=O)n(C)c1=O (stereo not drawn)
→ 11%, 26%
- CCN(CC)CCNc1cc(C)c(C#N)c2nc3ccccc3n12
→ ?, 3%
- CCOC(CCn1c(SCc2cccc([N+](=O)[O-])c2)nc2ccccc2c1=O)OCC
→ 9%, -7%
- CC(C)n1ncc2c(C(=O)NCCc3ccc(S(N)(=O)=O)cc3)cc(C3CC3)nc21
→ -1%, 3%
- CC(C)C(NC(=O)C12CC3CC(CC(C3)C1)C2)C(=O)N/N=C/C1=C(N2CCOCC2)C(=C\c2cccc([N+](=O)[O-])c2)/CC1 (stereo not drawn)
→ -3%, -7%
- O=C(CN1CCN(S(=O)(=O)c2ccc(Cl)cc2)CC1)NC(=O)NC1CCCCC1
→ 4%, -12%
- O=C(O)CC/C(=N\Nc1ccc([N+](=O)[O-])cc1S(=O)(=O)N1CCOCC1)c1cccs1
→ -10%, -6%
- Cc1cc(OCC(O)CN(CCO)CCO)ccc1Cl (stereo not drawn)
→ -3%, -5%
- COc1ccccc1NC(=O)Nc1cc(C(C)(C)C)nn1C
→ -24%, -3%
- O=C1CC(c2ccc(F)cc2)Sc2nc(C34CC5CC(CC(C5)C3)C4)nn21 (stereo not drawn)
→ 22%, -5%
- O=c1[nH]c(CN(CCO)CCO)nc2c1C1(CCCCC1)Cc1ccccc1-2
→ -1%, -1%
- O=C(COc1ccc(Cl)cc1Br)N1CCN(S(=O)(=O)c2ccccc2)CC1
→ 1%, -8%
- COc1ccccc1C(=O)NCCC(=O)NCCCSc1ccccc1
→ -5%, -13%
- CC(C)Cc1oc(C(=O)O)cc1CN
→ ·, 2%
- Cc1nc(SCCc2nc3ccccc3[nH]2)c2oc3ccccc3c2n1
→ ·, -6%
- CC1(C)OC(=O)C2(Cc3ccccc3N3CCCCC32)C(=O)O1 (stereo not drawn)
→ -4%, -4%
- C#CCSc1nnc(-c2cc3c(C(F)(F)F)nn(C)c3s2)n1C
→ 26%, -6%
- CCOc1ccc(S(=O)(=O)N2CCN(C(=O)CN3C(=O)NC4(CCCC4)C3=O)CC2)cc1
→ -12%, -3%
- CC(=O)OCC(=O)Nc1ccccc1OC(F)F
→ -27%, -2%
- CN1CCC[C@@H]1CCO[C@](C)(c1ccccc1)c1ccc(Cl)cc1
→ -24%, 7%[21.4 µM]
- CCCc1cc(=O)[nH]c(NCc2ccc(Cl)cc2)n1
→ 2%, ·
- Cc1onc(-c2ccccc2Cl)c1C(=O)Nc1nnc(-c2cccc([N+](=O)[O-])c2)s1
→ 12%, -7%
- COc1cccc(CNS(=O)(=O)c2ccc(-n3cnnn3)c(C)c2)c1
→ 2%, -3%
- Cc1cc(C(=O)COC(=O)C2CC2)c(C)n1-c1ccc(F)cc1
→ 2%, -4%
- NC(=O)NC(=O)COC(=O)/C=C/c1cccc(Br)c1
→ 1%, -4%
